TRPML1 agonist = qHTS for Agonists of the Human Mucolipin Transient Receptor Potential 1 (TRPML1); Mucolipin-1 (Homo sapiens), Q9GZU1; TRPML1-expressing cells, Ca2+ dye fluorescence, FDSS; host cell line not named in the record; reference of the full effect not given here; activation, % (concentration not given with the values); 410,000 compounds, 0.12% hits; AID 624414, 2012; in the data active = activation above about 50%; inconclusive = about 30% to 50%; inactive = below about 30%; note: 0% is about no effect; the text of the record puts the active cut at 80%
Target sequence (Q9GZU1 whole entry, looked up): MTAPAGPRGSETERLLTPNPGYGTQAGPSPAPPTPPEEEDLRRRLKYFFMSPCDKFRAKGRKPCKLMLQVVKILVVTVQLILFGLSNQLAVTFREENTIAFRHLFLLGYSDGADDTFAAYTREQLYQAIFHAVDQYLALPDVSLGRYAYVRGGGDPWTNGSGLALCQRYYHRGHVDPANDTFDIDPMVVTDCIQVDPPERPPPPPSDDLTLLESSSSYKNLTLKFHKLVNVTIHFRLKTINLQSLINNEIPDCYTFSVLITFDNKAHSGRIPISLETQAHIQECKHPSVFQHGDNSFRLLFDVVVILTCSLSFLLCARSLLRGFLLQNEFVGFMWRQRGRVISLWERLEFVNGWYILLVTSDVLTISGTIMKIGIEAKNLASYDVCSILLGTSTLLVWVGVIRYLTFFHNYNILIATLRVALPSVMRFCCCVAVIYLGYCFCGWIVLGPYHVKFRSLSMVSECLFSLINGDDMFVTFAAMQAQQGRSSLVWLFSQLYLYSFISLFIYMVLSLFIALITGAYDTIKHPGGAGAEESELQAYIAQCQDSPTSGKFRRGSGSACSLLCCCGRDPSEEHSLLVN
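TRPML1-DL cells, Tet-induced overnight (~16 h, 37 degrees C), loaded 45-90 min at room temperature with Ca8 no-wash calcium dye plus quencher. FDSS fluorescence: 10 s baseline, compound pin-transfer, 110 s agonist read, then EC80 54-4 (4uM final) and 110 s antagonist read.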
TRPML1 inh = qHTS for Inhibitors of the Human Mucolipin Transient Receptor Potential 1 (TRPML1); AID 624415, 2012; TRPML1-inducible cells, Ca2+ dye fluorescence, FDSS; active compounds read low; inhibition of EC80 agonist-evoked calcium signal; 390,000 compounds, 0.02% hits; activity change, negative = inhibition, % (no concentration beside the values); in the data active means activity change below about -50%; inconclusive means about -30% to -50%; inactive means above about -30%;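 note: stimulus is agonist 54-4 at its EC80 concentration; % is set by controls: 0 for no effect and ±100 for the full control effect; compound concentration not given in the record; the text of the record puts the active cut at -80%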
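Tet-induced TRPML1-DL cells loaded with Ca8 no-wash calcium dye were read kinetically on FDSS. Compound addition was followed by EC80 agonist 54-4 (4 uM final); inhibition was read over 110 s.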
gsp antag = qHTS for Antagonists of gsp, the Etiologic Mutation Responsible for Fibrous Dysplasia/McCune-Albright Syndrome: qHTS; gsp-mutant cells, cAMP HTRF, 30 min; control for the full effect not named in the record; Potency, µM (highest dose often 76.9 µM), without a hit: at the top dose activity change, negative = inhibition, hits mostly inhibitors; 340,000 compounds, 0.4% hits; AID 624288, 2012; active = falling curve of any shape with a large fitted effect; inconclusive = falling curve, mostly with a smaller effect; inactive = flat or rising curve; cell line not stated here;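 note: intracellular cAMP measured with PDE inhibitor Ro 20-1724 present during compound exposure; potency is the fitted concentration of half-maximal effect; % is set by controls: 0 for no effect and ±100 for the full control effect; nearly all actives have a fitted effect of over 65% in size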
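G418-selected cells were plated in DMEM/10% FBS for 16-24 h at 37C, then treated with compounds plus the PDE inhibitor […] (300 uM solution added) for 30 min at 37C. Intracellular cAMP was measured by HTRF after 30 min lysis at room temperature.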
Menin MLL FP FL = qHTS Assay for Inhibitors Targeting the Menin-MLL Interaction in MLL Related Leukemias: Competition With Fluorescein Labeled MLL-derived Peptide | 290,000 tested, under 10 active | Fluorescence polarization, fluorescein-MLL peptide displacement from menin | FP activity change, % at 61.4 µM; inconclusive = falling polarisation curve, or a change in total fluorescence; inactive = total fluorescence flat and polarisation flat or rising; no compound was filed as active; the % refers to the polarisation; negative = inhibition;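 note: % of control where 0% means no effect; inhibitors lower the polarisation; unlabelled MLL peptide was the positive control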
ClpP mod = qHTS Assay for Activators of ClpP. purified B. subtilis ClpP, FRET peptide cleavage, 20 min. Potency, µM (top dose mostly 57.5 µM), inactives show at the top dose activity change, negative = active. 340,000 compounds, 1.9% hits. AID 651965, 2013; active = well fitted falling curve with a large enough effect; inconclusive = small, poorly fitted or top-dose-only effect; inactive = no such curve, though single readings can be large or run the other way; note: potency is the fitted concentration of half-maximal effect; the source files actives as falling curves though it sought activators and does not explain the sign; nearly all actives have a fitted effect of over 65% in size; many hits overshoot -100%
Target sequence (P80244 whole entry, looked up): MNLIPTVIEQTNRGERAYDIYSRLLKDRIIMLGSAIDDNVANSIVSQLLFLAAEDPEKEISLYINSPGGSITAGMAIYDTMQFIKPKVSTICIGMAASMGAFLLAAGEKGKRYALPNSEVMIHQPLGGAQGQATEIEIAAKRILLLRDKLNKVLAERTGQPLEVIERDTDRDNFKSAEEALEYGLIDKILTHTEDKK
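ClpP 10 microg/mL final, pH 8 Tris/KCl buffer with BSA, glycerol, Tween-20; compound pinned in; FRET-FV substrate; RT 20 min; Ex320/Em430; ΔFRET vs ADEP 5.8 microM, DMSO, no enzyme.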
gsp ag = qHTS for Agonist of gsp, the Etiologic Mutation Responsible for Fibrous Dysplasia/McCune-Albright Syndrome: qHTS; 340,000 compounds, 0.13% hits; gsp mutant cells, cAMP HTRF, 30 min; control for the full effect not named in the record; Potency, µM (titrated, usually from 76.9 µM), without a hit: at the top dose activation (cAMP increase), most hits filed as activators; active = well fitted activation curve with a large enough effect; inconclusive = small, poorly fitted or top-dose-only effect, or another doubt; inactive = no such curve, though single readings can be large or run the other way; cell line not stated here;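 note: phosphodiesterase inhibitor Ro 20-1724 added with compounds to block cAMP breakdown; potency is the fitted concentration of half-maximal effect; nearly all actives have a fitted effect of over 60% in size; about a fifth of the inactives were tested at one dose only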
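Cells stably selected in G418 were plated at 2000/well, grown 16-24 hr, then given compounds in DMSO with the PDE inhibitor […] (300 uM solution added) for 30 min at 37C; cAMP was read by HTRF.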
* = called active by the depositor; ? = inconclusive; / = not tested or not shown; [ ] = remark or other dose.

Each structure is followed by: TRPML1 agonist, TRPML1 inh, gsp antag, Menin MLL FP FL, ClpP mod, gsp ag
> CCSc1ccc([C@@H]2[C@@H]3C(=O)N(C)C(=O)[C@@H]3[C@]3(C(=O)OC)CCCCN23)cc1
    -0.3, 7, -2%, /, -2.3%, -30%
> COc1ccccc1C(=O)COC(=O)C1CCN(S(=O)(=O)c2ccccc2)CC1
    0.7, 16, /, /, -3.7%, -34%[inhibitor]
> Cc1ccccc1-c1ncc(CN2CCN(C3CCCCC3)C(CCO)C2)cn1 (stereo not drawn)
    0.0, 3, 7%, 5.1, -1.6%, 1%
> O=C(CSc1nnnn1-c1ccccc1)NCC1(N2CCOCC2)CCCCC1
    -0.4, 13, -2%, /, -1.8%, 13%
> CCOc1ccc(N=C2NC(=O)C(CC(=O)O)S2)cc1 (stereo not drawn)
    1.1, 1, 9%, 0.4, 1.1%, 0%
> CN(CCc1ccccn1)C(=S)Nc1cccc(S(=O)(=O)N(C)C)c1
    0.0, -3, 0%, /, /, 11%[15.4 µM]
> CCOc1ccc(C(=O)Nc2ccc(-c3nc4cc(C)ccc4o3)cc2)cc1
    0.9, 1, /, /, -27%, /
> CC(=O)c1c(C)oc2ccc(N(C(=O)Oc3ccccc3)S(=O)(=O)c3ccc(C(C)(C)C)cc3)cc12
    1.0, -10, /, /, 0.1%, /
> CCCCc1ccc(NC(=O)c2cc(-c3ccc(C)c(F)c3)on2)cc1
    0.3, 21, /, /, -9.0%, /
> Clc1ccc(CSc2nnc(-c3cccnc3)o2)cc1
    4.7, -17, 15%, -7.2, -5.0%, 4%
> CCOc1ccc(NC(=O)CN(c2ccc(CC)cc2)S(=O)(=O)c2c(C)noc2C)cc1
    0.2, 1, /, /, 0.3%, /
> Cc1n(Cc2ccccc2)c2cc([N+](=O)[O-])ccc2[n+]1Cc1ccccc1
    -0.8, 1, 1%, -1.8, 0.2%, -10%
> C=Cn1cc[n+](CC(=O)c2cc(C(C)(C)C)c(O)c(C(C)(C)C)c2)c1
    0.5, -3, 8%, 0.3, 0.3%, 30%
> O=C1CC(c2cccc(O)c2)c2cc3c(cc2N1)OCO3 (stereo not drawn)
    -1.1, -9, /, /, -3.9%, /
> C/C(=N\NC(=O)COc1ccc(C)cc1[N+](=O)[O-])c1ccc2c(c1)OCCO2
    0.1, -12, -21%, /, 1.6%, -14%
> O=C(c1ccc(Cl)c(S(=O)(=O)N2CCOCC2)c1)N1CCCCC1
    0.1, -19, 2%, -0.7, /, -41%[inhibitor]
> Cc1cc(O)c(C(=O)/C=C/c2c(F)c(F)c(F)c(F)c2F)c(=O)o1
    0.8, -15, -9%, ?, -8.8%, 4%
> Cc1sc2nc(-c3ccco3)oc(=O)c2c1C
    -1.2, 17, -14%, 5.4, -3.3%, 2%
> COc1cc(C(=S)N2CCOCC2)cc(OC)c1OC(=O)c1cccc(C)c1
    0.9, 18, -10%, 3.0, -1.1%, 8%
> COCCSc1ccccc1C(=O)N1CCN(c2ccccc2OC)CC1
    1.6, -19, 4%, 1.4, 2.2%, -52%[inhibitor]
> COCc1c(Br)c(C)nc2sc3c(=O)n(-c4cccc(Br)c4)nnc3c12
    0.3, 0, /, /, -0.2%, /
> COCCN(C(=O)c1ccc(NC2CC2)c([N+](=O)[O-])c1)c1c(N)n(CC(C)C)c(=O)[nH]c1=O
    -0.6, 8, 12%, /, 1.0%, 4%
> CN(C(=O)CSc1nc2ccccc2n1CC(=O)NCc1ccc(F)cc1)c1ccc(F)cc1
    0.1, 6, /, /, -11%, /
> CCOC(=O)c1cc(C)n(CC2CCC(C(=O)Nc3ccc(OCC)cc3)CC2)c1C (stereo not drawn)
    2.2, 25, /, /, -1.2%, /
> COc1ccc2cc(Br)ccc2c1CC(=O)N(C)C
    -0.8, -2, -9%, 0.2, /, 8%[15.4 µM]
> CC(=O)Nc1ccc(S(=O)(=O)n2nc(C)cc2C)cc1
    -0.3, 8, 8%, 4.2, 0.5%, -10%[15.4 µM]
> Cc1cc(C)c(S(=O)(=O)N2CCN(Cc3nc4ccc(C)cc4o3)CC2)c(C)c1
    2.3, -9, /, /, 0.9%, /
> COc1ccc(OC)c(CN2CCC(C(=O)N3CCN(c4ccccc4F)CC3)CC2)c1
    2.2, 21, 8%, -0.3, -2.4%, ?
> Nc1ccc2c(S(=O)(=O)O)cccc2c1S(=O)(=O)O
    -0.7, -9, 15%, /, /, ?
> O=C(NCc1ccco1)c1cc(-c2ccc3c(c2)OCO3)on1
    -0.4, -3, 11%, 2.4, ?, 7%
> Cc1ccc(NC(=O)Cn2cnc3cc([N+](=O)[O-])ccc3c2=O)c(Cl)c1
    0.6, -5, 9%, -5.9, /, 5%[15.4 µM]
> O=C(N/C(=C\c1ccccc1)C(=O)N1CCOCC1)c1cccc(Br)c1
    0.1, 6, -8%, 4.5, 1.5%, -52%[inhibitor]
> COc1ccc(Br)c(C(=O)Nc2cccc(S(=O)(=O)N3CCOCC3)c2)c1
    -0.4, -3, 2%, /, 1.2%, 15%
> Cc1ccc2nc(NC(=O)C3CCCN(S(=O)(=O)c4cnc[nH]4)C3)sc2c1 (stereo not drawn)
    0.1, -13, -3%, -0.5, -1.9%, -16%
> COc1ccc(NS(=O)(=O)c2cc(S(C)(=O)=O)ccc2C)cc1
    0.8, 25, 2%, -2.4, -1.0%, 22%
> Cc1ccc(C)c(NC(NC(=O)c2cccnc2)C(Cl)(Cl)Cl)c1 (stereo not drawn)
    -0.4, 13, 6%, 0.9, 0.3%, 8%
> CCN1C(=O)/C(=C/C=C2/SCCN2C)SC1=S
    16, 14, 7%, ?, -1.7%, 11%
> Cc1ccnc(NC(=O)c2ccc3c(c2)NC(=O)C(C)S3)c1 (stereo not drawn)
    3.2, 17, -13%, /, -3.4%, 10%
> CCn1cc(S(=O)(=O)Nc2cc(C(=O)OC)ccc2C)cn1
    0.2, 22, 5%, /, -1.4%, -18%
> O=c1c2ccc(Cl)cc2nc(-c2cccc(C(F)(F)F)c2)n1O
    0.6, 0, -4%, 3.1, -2.0%, -2%
> O=C(N/N=C/c1cccc(OCc2ccccc2)c1)c1cccs1
    -0.3, -2, 6%, 3.2, -0.7%, -28%
> S=C(NCCc1ccccc1)NCc1cccc(Cl)c1
    -0.4, -10, 8%, /, -0.1%, 5%
> CCO[C@H]1OC(C(=O)N2CCCCCCC2)=C[C@@H](c2ccccc2)[C@@H]1CCCO
    1.1, -17, -6%, 0.7, 2.5%, /
> COc1cc(C2C3=C(COC3=O)Oc3cc4c(cc32)OCO4)ccc1OC(C)=O (stereo not drawn)
    -0.3, 41, 11%, /, 0.9%, 12%
> COc1cc(OC)cc(C(=O)Nc2cccc3nc(C)ccc23)c1
    -0.6, -9, -8%, -2.1, /, ?
> COC(=O)NC(NC(=S)Nc1ccccc1OC)C(Cl)(Cl)Cl (stereo not drawn)
    -0.7, -3, 5%, -3.0, 3.6%, 7%
> O=C(NCCc1ccccc1)c1ccccc1NC(=O)C1CC=CCC1C(=O)O (stereo not drawn)
    -0.7, 9, -8%, -0.4, -14%, 8%
> COC(=O)c1ccccc1NC(=O)CN1CCC(NC(=O)c2ccc(C)cc2)CC1
    2.6, 6, -7%, 1.3, -3.8%, -19%
> CCCCCCCCC(=O)NNC(=O)c1c(O)c2ccccc2n(CC)c1=O
    3.2, 7, /, -1.8, /, 8%[15.4 µM]
> CCN(CC)CCCNC(=O)c1nn(-c2ccccc2OC)c(=O)c2ccccc12
    -0.1, 14, 3%, -17, 0.7%, -7%
> Cc1nc(C(=O)NC2CCOCC2)sc1C1(C)CC(c2cccc([N+](=O)[O-])c2)=NO1 (stereo not drawn)
    1.7, -8, ?, 5.5, -1.0%, -2%
> CC(C)(C)c1ccc2c(c1)OCC(C(=O)O)O2 (stereo not drawn)
    -0.6, 24, -4%, 5.4, -1.0%, -31%[inhibitor]
> COc1ccc(NC(=O)CCN2CCN(S(=O)(=O)c3ccc(C(C)C)cc3)CC2)cc1
    0.3, 30, 6%, 1.3, 0.7%, -5%
> Cc1ccc2ncc3c(-c4ccccc4)nn(CC(=O)NC4CCCCC4)c3c2c1
    1.3, 0, /, /, -4.7%, /
> Nc1nnnn1CC(=O)N/N=C/c1cccs1
    0.4, 18, 6%, 1.0, 0.4%, 23%
> COc1ccc(C(=O)NC(=S)NCc2cccnc2)cc1Cl
    0.4, -1, -15%, 0.2, /, -8%[15.4 µM]
> COC(=O)[C@]1(Cc2ccccc2)N[C@H](CN(C)C(=O)Nc2ccc(OC)cc2)[C@@H]2C(=O)N(Cc3ccccc3)C(=O)[C@@H]21
    -1.1, 11, -15%, /, -2.5%, /
> CN(Cc1cnn(C)c1)C(=O)c1cc2ccccc2oc1=O
    -0.6, 30, 4%, 6.0, -13%, -15%
> COc1ccccc1Nc1nc(-c2sc(NC(=O)c3ccccc3)nc2C)cs1
    -0.4, -5, 4%, -2.4, 1.5%, /
> CCCCn1c(N)c(-c2nc3ccccc3s2)c2c([N+](=O)[O-])nn(C)c(=O)c21
    -0.7, 0, -4%, 2.4, 0.0%, 3%

(listing goes on)
Each structure is followed by: TRPML1 agonist, TRPML1 inh, gsp antag, Menin MLL FP FL, ClpP mod, gsp ag
> Cc1cccc(C(=O)OCC(=O)N2CCC(c3ccccc3)=N2)c1O
    0.1, 4, 7%, /, 64%, ?
> COc1ccc(-c2nc3ccccc3c(=O)o2)cc1OC
    3.4, 3, -22%, 6.0, ?, -2%
> Cc1cc(C)c(C#N)c(Sc2ccc(N)cc2)n1
    -0.1, -6, 6%, 3.2, 5.0%, 24%
> Cc1cc(N2CCOCC2)nc2ccc(NC(=O)CCC(=O)N3CCCC(C)C3)cc12 (stereo not drawn)
    -0.2, -5, -10%, 5.2, ?, 7%
> CCn1c(SC)nnc1-c1sc2cc(Cl)ccc2c1Cl
    3.2, 24, -13%, -1.1, -2.5%, 21%
> COc1ccc(OC(=O)c2nc(SCc3ccccc3C)ncc2Cl)cc1
    1.3, 11, /, /, 1.7%, /
> COc1ccccc1NC(=O)C1CCN(S(=O)(=O)c2cn(C)cn2)CC1
    0.3, -20, /, /, -2.5%, /
> CCCC(=O)Nc1ccc(C(=O)Nc2cccc(OC)c2)cc1
    0.6, 2, -4%, /, 2.0%, 3%
> CC1CCCN(C(=O)NC(=O)c2ccc(Cl)cc2)C1 (stereo not drawn)
    0.8, 1, 4%, /, -1.9%, 32%

Screens deposited in PubChem BioAssay by National Center for Advancing Translational Sciences (NCATS).
